# Source: PubChem BioAssay (several laboratories)
# Mtb H37Rv: M. tuberculosis H37Rv growth inhibitors, H37Rv strain (AID 1626). one-dose inhibition, % at 10 µM; IC50 in µM for titrated hits. 220,000 tested, 0.95% active. M. tuberculosis H37Rv growth inhibition; higher % means a stronger effect;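 active = confirmed in a dose series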;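 note: bacteria incubated seven days before Alamar blue readout; 0% = bacteria only wells and 100% = bacteria with antibiotic wells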
# YopH PTP inh: YopH tyrosine phosphatase inhibitors, primary screen, biochemical, fluorescence Ex485/Em525; YopH tyrosine phosphatase [Yersinia enterocolitica]; inhibition, %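 (about 10 µM by stock and volumes)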; 140,000 tested, 0.16% active; AID 898, 2007;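 active = inhibition of 50% or more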;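 note: controls were vehicle for no effect and minimum signal wells for full effect; inactives centre near -20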
# Arbovirus inh: antivirals against arbovirus infection, primary screen, cell-based, full library, 10K replicate subset; arbovirus infection cell-based antiviral screen; inhibition, % at 10 µM; 200,000 tested, 0.37% active; AID 1251, 2008;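 active = inhibition from about 30%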;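 note: bluetongue infection of BSR cells; cell survival read as ATP light after 72 h; 0% = infected wells without compound and 100% = uninfected wells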
# Mtb betalactam: beta-lactam sensitization of Mtb H37Rv, H37Rv. 330,000 tested, 0.27% active. M. tuberculosis H37Rv growth with meropenem, percent inhibition; hits of this screen are not shown here. AID 434955, 2010. inhibition, % at 25 µM;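 active = about 74% or more and at least 40 points above the plate without the antibiotic, then above 30% in a dose series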;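 note: growth measured after seven days incubation then overnight dye step; 0% = bacteria only wells and 100% = bacteria with antibiotic; twin plates without the antibiotic show which effects depend on it; some results filed as inactive read as strong as hits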
# RecA splice inh: Mtb RecA intein splicing inhibitors, primary screen, biochemical, fluorescence, HTS. Protein RecA (Mycobacterium tuberculosis (strain ATCC 25618 / H37Rv)), P9WHJ3. cell-free RecA intein splicing. inhibition, %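 (about 9 µM by stock and volumes)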. 290,000 tested, 0.75% active. AID 2221, 2009; in the data active = inhibition above about 30%;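 note: 0% = vehicle wells and 100% = reference inhibitor control wells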
# Target sequence (P9WHJ3 whole entry, looked up, canonical isoform): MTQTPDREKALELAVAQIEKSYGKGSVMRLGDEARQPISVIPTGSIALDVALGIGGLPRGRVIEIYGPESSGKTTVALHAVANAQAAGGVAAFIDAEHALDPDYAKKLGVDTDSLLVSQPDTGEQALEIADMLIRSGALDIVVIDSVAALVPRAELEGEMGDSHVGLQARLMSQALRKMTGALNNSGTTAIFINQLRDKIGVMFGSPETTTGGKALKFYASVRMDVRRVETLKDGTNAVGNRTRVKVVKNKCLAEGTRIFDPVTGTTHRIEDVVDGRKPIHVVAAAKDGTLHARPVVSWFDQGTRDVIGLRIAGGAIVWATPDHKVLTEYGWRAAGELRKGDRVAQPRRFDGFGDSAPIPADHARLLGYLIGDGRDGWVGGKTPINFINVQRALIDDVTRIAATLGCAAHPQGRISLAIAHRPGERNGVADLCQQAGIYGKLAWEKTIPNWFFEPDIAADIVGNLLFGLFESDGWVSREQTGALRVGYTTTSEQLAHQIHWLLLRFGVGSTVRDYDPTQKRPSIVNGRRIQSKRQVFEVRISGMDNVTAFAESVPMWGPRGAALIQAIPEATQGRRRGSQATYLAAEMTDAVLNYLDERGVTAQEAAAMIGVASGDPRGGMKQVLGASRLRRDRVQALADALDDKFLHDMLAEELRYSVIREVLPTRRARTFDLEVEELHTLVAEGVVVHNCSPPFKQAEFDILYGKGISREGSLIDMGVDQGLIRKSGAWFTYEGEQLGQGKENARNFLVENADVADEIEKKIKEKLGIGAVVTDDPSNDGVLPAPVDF
# Arbovirus inh repeat: further read-out of Arbovirus inh, marked with its call; inhibition, %; measured here: 10K subset replicate screen; many hits read low in the repeat;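 first of two repeat runs on a subset; 0% = infected and 100% = uninfected wells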
# * = called active by the depositor; / = not tested or not shown. The list is partial; rates above refer to the full screens.
SMILES,Mtb H37Rv,YopH PTP inh,Arbovirus inh,Mtb betalactam,RecA splice inh,others
O=C1CC(c2ccco2)Cc2nc(NCC3CCCO3)ncc21 (configuration not stated),-7%,-31,-3,10,-17,
O=c1cc(/C=C/c2cccs2)[nH]c2ccccc12,7%,-3,3,1,-3.0,
Cc1ccc(-n2nc(C)c(NC(=O)CCl)c2C)cc1C,1%,-30,5,97,42*,
CCOC(=O)CC1CCCCN1C(=O)c1cc(COc2cccc3cnccc23)on1 (configuration not stated),/,/,/,-5,5.8,
COc1ccc(F)cc1S(=O)(=O)NCC(=O)NCc1cc(=O)n(C)c(=O)n1C,/,/,/,-1,-1.6,
Cc1ccc(C(=O)N2CCC3(CC2)Oc2ccc(F)cc2C(=O)C32CC(c3cccnc3)=NO2)s1 (configuration not stated),9%,/,/,/,1.6,
CCCN(CCC)C(=O)Cn1c(=O)n(CCCCCC(=O)Nc2ccccc2)c(=O)c2sccc21,/,-10,-3,3,4.2,
CC(=O)c1cc(NC(=O)c2ccc(C)cc2)c(=O)oc1/C=C/N(C)C,4%,-25,-4,16,-23,
CC(C)OC(=O)CSc1nnc(-c2ccc(O)cc2)n1Cc1ccccc1,-9%,13,7,5,1.6,
CCC(C)NC(=O)c1ccccc1NC(=O)COc1ccc(OC)cc1 (configuration not stated),/,11,-7,/,-1.8,
COc1ccccc1CC(=O)NNC(=O)c1cccs1,-5%,/,0,1,-0.9,
CN(C)c1ccc(/C=N/NC(=O)c2ccc3nc[nH]c3c2)cc1,-5%,/,/,3,-0.8,
Cc1nc(CNC(=O)c2cc(COc3ccc(F)cc3Cl)on2)cs1,10%,/,-16,-6,2.5,
CCn1c(CNc2nc(-c3ccccc3)cs2)nnc1SCC(=O)NCc1ccccc1,-2%,-1,8,-4,0.9,
CN(C)S(=O)(=O)N1CCN(c2ccc([N+](=O)[O-])c(NC3CC3)c2)CC1,-2%,/,-1,-1,1.6,
CC1=C(C(=O)OCc2ccccc2)C(c2ccc(Cl)cc2)NC(=O)N1CCCC(=O)O (configuration not stated),/,/,/,-3,3.4,
COc1ccc(/C=N/NC(=O)c2ccn[nH]2)cc1COc1ccc(F)cc1,76%,-14,9,28,3.7,
Cc1nc2ccc(NC(=O)N(C)c3ccccc3)cc2s1,77%,-14,0,0,/,
CCOc1ccc(C(=S)NC2CCCCC2)cc1OCC,/,/,/,86,1.6,
O=C(Cc1ccc(S(=O)(=O)N2CCOCC2)s1)Nc1ccc2c(c1)CCC2,2%,-26,-9,-4,0.8,
CCC(C)NC(=S)Nc1ccc(C(=O)OC)cc1 (configuration not stated),-22%,/,5,-5,1.5,
CC(C)Cc1cc(C(=O)O)n[nH]1,-3%,-42,3,2,-3.1,
COc1ccc(S(=O)(=O)NCC2CCCN(Cc3ccc(OC)cc3F)C2)cc1 (configuration not stated),/,/,/,11,8.2,
Cc1ccc(S(=O)(=O)NC(=O)c2cc(C)n(CCCN3CCOCC3)c2C)cc1,/,0,0,-8,-1.3,
COc1cc(-c2nc(S(=O)(=O)c3ccc(Cl)cc3)c(N(C)C)o2)cc(OC)c1OC,1%,10,-5,-1,2.9,

# Of the compounds above, 4 have a Cl atom:
SMILES,Mtb H37Rv,YopH PTP inh,Arbovirus inh,Mtb betalactam,RecA splice inh,others
Cc1ccc(-n2nc(C)c(NC(=O)CCl)c2C)cc1C,1%,-30,5,97,42*,
Cc1nc(CNC(=O)c2cc(COc3ccc(F)cc3Cl)on2)cs1,10%,/,-16,-6,2.5,
CC1=C(C(=O)OCc2ccccc2)C(c2ccc(Cl)cc2)NC(=O)N1CCCC(=O)O (configuration not stated),/,/,/,-3,3.4,
COc1cc(-c2nc(S(=O)(=O)c3ccc(Cl)cc3)c(N(C)C)o2)cc(OC)c1OC,1%,10,-5,-1,2.9,

# Other compounds follow:
SMILES,Mtb H37Rv,YopH PTP inh,Arbovirus inh,Mtb betalactam,RecA splice inh,others
Cc1cccc(C(=O)N2CCCC(N3CCN(c4ccccc4)CC3)C2)n1 (configuration not stated),/,/,/,3,0.1,
COc1ccc(C(=O)/C(=C/O)N=Nc2ccc(F)cc2)cc1,5%,/,7,1,2.0,
Cc1ccc(C#N)c(SCc2ccccc2[N+](=O)[O-])n1,1%,-15,0,-7,2.4,
COc1cccc(/C=N/N(C)C2=NS(=O)(=O)c3ccccc32)c1O,/,/,/,-7,-2.8,
CC(C)[C@H](NC(=O)Nc1cccc(Br)c1)C(=O)O,4%,-22,2,6,-0.7,
COc1ccc(N2CCN(C(=O)CCCn3c(=S)[nH]c4cc5c(cc4c3=O)OCO5)CC2)cc1,1%,-15,-8,0,-0.6,
COc1ccc(C(=O)NN2CCCCC2)cc1OC,-4%,-38,0,-6,0.8,
CC(C)(C)c1ccc(C(=O)NC(=S)N2CCOCC2)cc1,/,/,/,92,1.6,
CS(=O)(=O)N(CC(=O)N1CCN(Cc2ccc3c(c2)OCO3)CC1)C1CCCCC1,-2%,/,-1,-11,-1.6,
Cc1cc(NC(=O)CSc2ccc3nnc(-c4ccc(Cl)cc4)n3n2)no1,-3%,-47,12,-11,-1.5,
COC(=O)c1ccccc1NC(=O)CN1CCc2ccccc2C1,/,/,/,4,-1.3,
Cc1nn(-c2cccc(Cl)c2)c2nc(-c3ccco3)cc(C(=O)O)c12,0%,-22,19,9,5.5,
COc1cccc(NC(=O)C2C3C=CC4(O3)C2C(=O)N(CCCN2CCCCC2)C4C(=O)NC2CCCCC2)c1 (configuration not stated),/,/,/,-6,3.0,
O=C(NCCCC(NC(=O)OCc1ccccc1)C(=O)O)OCc1ccccc1 (configuration not stated),/,/,/,-2,-4.4,
O=C(CSc1nc2ccc(Cl)cc2[nH]1)Nc1ccc2[nH]c(=O)[nH]c2c1,/,/,/,96,-1.3,
CC(C)C[C@H](NC(=O)c1nc[nH]c1C(=O)NC(c1ccccc1)c1ccccc1)C(=O)OC(C)(C)C,45%,/,-20,1,-0.3,
Cc1cccc(NC(=O)N[C@@H](C)C(=O)O)c1,1%,0,-2,-23,-6.8,
COc1ccc([N+](=O)[O-])cc1/C=N/NC(=O)c1nonc1N,11%,/,-3,2,-5.7,
Cc1ccc2c(c1)N(CC(=O)N1CCOCC1)C(=O)CO2,/,/,/,-8,0.9,
COc1ccc(CCN2C(=O)CC(C(N)=O)SC2=Nc2ccccc2)cc1OC (configuration not stated),10%,-35,10,-7,-0.8,
CCOC(=O)CN(C(=O)CSc1nnc(CNc2ccc(F)cc2)o1)c1ccccc1,-11%,-28,6,1,6.0,
Cc1ccc(OC(=O)CCC(=O)NC(C)c2ccccc2)cc1 (configuration not stated),3%,-2,-1,0,2.2,
CCOc1ccc(NC(=O)C2CC(=O)NC(N3CCc4ccccc43)=N2)cc1 (configuration not stated),3%,-18,4,-4,0.6,
CN(C)c1ccc(C(=O)N2CCN(c3cc(C(F)(F)F)nc4ccccc34)CC2)cc1,0%,/,/,3,7.1,
O=C(CSc1nnnn1-c1ccccc1)N1CCNC1=O,/,/,/,-3,-1.5,

# Ordered by length of the SMILES (highest first): some entries from above.
SMILES,Mtb H37Rv,YopH PTP inh,Arbovirus inh,Mtb betalactam,RecA splice inh,others
CN(C)c1ccc(C(=O)N2CCN(c3cc(C(F)(F)F)nc4ccccc34)CC2)cc1,0%,/,/,3,7.1,
CS(=O)(=O)N(CC(=O)N1CCN(Cc2ccc3c(c2)OCO3)CC1)C1CCCCC1,-2%,/,-1,-11,-1.6,
COc1cccc(/C=N/N(C)C2=NS(=O)(=O)c3ccccc32)c1O,/,/,/,-7,-2.8,
Cc1ccc(OC(=O)CCC(=O)NC(C)c2ccccc2)cc1 (configuration not stated),3%,-2,-1,0,2.2,
COc1ccc(C(=O)NN2CCCCC2)cc1OC,-4%,-38,0,-6,0.8,

# Further results.
SMILES,Mtb H37Rv,YopH PTP inh,Arbovirus inh,Mtb betalactam,RecA splice inh,others
O=c1c2sccc2nc(SCc2cc(=O)n3ccccc3n2)n1-c1ccc(Br)cc1,9%,-1,-6,-6,5.9,
CCOc1cc(CN2CCN(C(=O)CC(C)C)CC2)ccc1OC,-2%,-24,6,-6,-2.4,
COc1ccccc1OCc1ccc(C(=O)N2CCCCC2)o1,/,/,/,6,0.3,
COc1cccc(C(=O)CSc2nnc(CNS(=O)(=O)c3ccc(C)cc3)n2C)c1,4%,11,5,/,0.7,
CC(Oc1cccc(Cl)c1)C(=O)Nc1ccncc1 (configuration not stated),-6%,/,6,1,-5.3,
CCOC(=O)CSC1=N/C(=C/c2ccc(-n3cncn3)cc2)C(=O)N1C(C)=O,5%,/,0,4,-1.2,
CC(C)CC(=O)Nc1ccc(C(=O)COc2ccc(-c3nnco3)cc2)cc1,7%,-53,-2,-7,/,Arbovirus inh repeat=10
CCCCn1nc(C(=O)N(C)CC(=O)Nc2cccc(F)c2)c2ccccc2c1=O,/,/,/,-11,1.9,
Cc1nc(NC(=O)c2ccccc2)sc1-c1csc(NCCc2ccccc2)n1,-17%,20,-36,83,5.1,
O=C(Nc1ccccc1C(=O)Nc1nncs1)c1ccccc1,-4%,/,/,-8,-1.5,
Cc1ccc(CN(CC(=O)NC2CCCC2)C(=O)CSc2nnc(COc3ccccc3)o2)cc1,-10%,-31,1,3,0.1,
c1ccc(CCNc2c3c(nc4ncnn24)CCC3)cc1,15%,-52,5,-9,0.7,
CC1CC(C)(C)NC(=S)N1CCC(=O)NCc1ccc(Cl)cc1 (configuration not stated),0%,/,6,1,0.2,
COc1cc(Nc2ncnc(N)n2)cc(OC)c1,5%,/,/,-4,0.3,
O=S(=O)(Nc1ccc2c(c1)OCO2)c1ccc(Br)s1,17%,-16,-19,2,9.1,
CCOc1ccc(C(O)(c2ccccc2OC)C(CN2CCCC2)c2ccccc2)cc1 (configuration not stated),/,/,/,5,0.1,
CCN1C(=O)CC(N2CCN(CC(=O)NC(C)C)CC2)C1=O (configuration not stated),-5%,-5,3,2,-1.7,
CCC(C)NC(=O)CCC(=O)OC1O[C@H]2OC3(C)CC[C@H]4[C@H](C)CCC(C1C)C24OO3 (some centres not stated),/,/,/,-8,-1.0,
O=C(NCc1cccnc1)C1CC(c2ccc(Cl)c(Cl)c2)=NO1 (configuration not stated),/,/,/,-4,-5.7,
O=C(NCc1n[nH]c(=S)n1Cc1ccccc1)c1ccc(Cl)cc1Cl,7%,/,17,-2,2.0,
CN(C(=O)c1ccncc1)C1CCCN(Cc2ccccc2F)C1 (configuration not stated),/,/,/,-4,-2.5,
COc1cc(NC(=O)CSc2nnc(C)s2)cc(OC)c1OC,0%,-20,-1,0,-0.5,
CCN1CCCC1CNC(=O)c1cc2c(OC)c(OC)c(OC)cc2[nH]1 (configuration not stated),/,/,/,-8,-10,
CCOCCc1c(O)[nH]c(=S)[nH]c1=O,-9%,/,1,-5,-3.8,

# 6 entries picked at random from the list so far:
SMILES,Mtb H37Rv,YopH PTP inh,Arbovirus inh,Mtb betalactam,RecA splice inh,others
CCOc1ccc(C(O)(c2ccccc2OC)C(CN2CCCC2)c2ccccc2)cc1 (configuration not stated),/,/,/,5,0.1,
CCOC(=O)CSC1=N/C(=C/c2ccc(-n3cncn3)cc2)C(=O)N1C(C)=O,5%,/,0,4,-1.2,
O=C(Nc1ccccc1C(=O)Nc1nncs1)c1ccccc1,-4%,/,/,-8,-1.5,
CCC(C)NC(=O)CCC(=O)OC1O[C@H]2OC3(C)CC[C@H]4[C@H](C)CCC(C1C)C24OO3 (some centres not stated),/,/,/,-8,-1.0,
O=S(=O)(Nc1ccc2c(c1)OCO2)c1ccc(Br)s1,17%,-16,-19,2,9.1,
O=c1c2sccc2nc(SCc2cc(=O)n3ccccc3n2)n1-c1ccc(Br)cc1,9%,-1,-6,-6,5.9,
